PK Bst: pyruvate kinase (B. stearothermophilus) modulation. AID 361. partly purified Bacillus stearothermophilus pyruvate kinase, luminescence ATP production; ribose 5-phosphate activator present at AC10. actives 1.2% (n = 51,000). Potency, µM; in the data active means potency below about 11 µM; inconclusive means mostly about 12 µM to 25 µM; inactive means weaker than that;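 the screen sought inhibitors and activators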;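 also: potency is read from the fitted curve at half-maximal effect; scaled between full activation by ribose 5 phosphate and full inhibition by luteolin; about four in five hits inhibit and the cells do not say which; series up to 57 µM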
YjeE inh: YjeE (TsaE) inhibition, E. coli; P0AF67; purified YjeE, fluorescence polarisation of a bound ADP probe; Potency, µM; actives 0.05% (n = 71,000); active = well fitted falling curve; inconclusive = weaker or top-dose-only fall, or a rising curve; inactive = flat or poorly fitted curve;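 also: top concentration of the series not given in the record; excess ADP was the control for the full effect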
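Purified YjeE (10 uM) with BODIPY Texas Red-labeled ADP probe (2 uM); compounds pin-transferred, 15 min at room temperature. Binding inhibition read as decreased fluorescence polarization; ADP titration as control.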
* marks the source's active call; other numbers are inactive results; i = inactive; ? = inconclusive; . = not tested or not shown. The list is partial; rates above refer to the full screens.

mol,PK Bst,YjeE inh
CCCCOc1ccccc1NC(=O)c1ccc(=O)[nH]c1,>57,i
COc1ccccc1-c1cc(NCc2cccnc2)ncn1,.,i
CCCNc1nc2c(c(=O)n(C)c(=O)n2C)n1Cc1ccc(F)cc1,.,i
Cc1ccsc1-c1nc(CSCC(=O)NCCN2CCCC2)c(C)o1,>57,i
COc1ccc(N2CCN(C(c3ccccc3OC)c3nnnn3Cc3ccco3)CC2)cc1 (centres undefined),>57,i
O=C1CC(N2CCN(c3ccc(O)cc3)CC2)C(=O)N1Cc1cccs1 (centres undefined),>57,i
CC(C)NC(=O)C1CCCN(S(=O)(=O)c2cccs2)C1 (centres undefined),>57,i
Cn1cccc1Cc1nnc(SCC(N)=O)n1-c1ccc(F)cc1,.,i
CC1CCN(S(=O)(=O)c2ccc(NC(=O)Cn3nnc(-c4ccccc4)n3)cc2)CC1,>57,i
Cc1ccc(NC(=O)CS(=O)CC(=O)Nc2ccc3c(c2)OCO3)cc1Cl (centres undefined),>57,i
CN1CCN(S(=O)(=O)c2ccc(Sc3nc4ccccc4[nH]3)c3nsnc23)CC1,>57,i
C=CCn1c(COc2ccc(CC)cc2)nnc1SCC(=O)N(C)C1CCS(=O)(=O)C1 (centres undefined),>57,i
CCOC(=O)C1C(=O)C=C(c2cccc(NS(C)(=O)=O)c2)CC1c1ccco1 (centres undefined),>57,i
OC[C@H]1O[C@@H]2O[C@H]3[C@H](O)[C@@H](O)[C@@H](O[C@H]4[C@H](O)[C@@H](O)[C@@H](O[C@H]5[C@H](O)[C@@H](O)[C@@H](O[C@H]6[C@H](O)[C@@H](O)[C@@H](O[C@H]7[C@H](O)[C@@H](O)[C@@H](O[C@H]1[C@H](O)[C@H]2O)O[C@@H]7CO)O[C@@H]6CO)O[C@@H]5CO)O[C@@H]4CO)O[C@@H]3CO,.,i
CC(=O)Oc1ccc(C(c2ccc(OC(C)=O)cc2)c2ccccn2)cc1,>11,i
O=S(=O)(c1ccc(F)cc1)N1CCC(N2CCCC2)CC1,.,i
COc1ccc(Oc2ncnc3c2oc2ccc(Br)cc23)cc1,.,i
CC(C)C[C@@H](CC(=O)N[C@@H](CCC(=O)O)CC(=O)O)NC(=O)[C@@H]1CCCC[C@H]1NC(=O)C[C@H](CCCN)NC(=O)C[C@H](Cc1ccccc1)NC(=O)[C@@H]1CCCC[C@H]1N,.,i
CC(=O)OC/C=C(\C)CCC=C(C)C,.,i
Cn1c(=O)[nH]c(=O)c2c1nc(N1CCCCCC1)n2CCSc1nc2ccccc2o1,.,i
COc1ccc(-c2nnc(Nc3nc4c(OC)cccc4s3)o2)c(OC)c1,>57,i
CN1/C(=N\O)c2cccc3cccc1c23,?,i
O=C(CSc1nnc(NC(=O)C2CCC2)s1)NC1CC1,>57,i
ClC(Br)=C(n1cnc2ccccc21)n1cnc2ccccc21,>26,.
COc1ccc(CCNS(=O)(=O)c2ccc(C3CNC(=O)C3)cc2)cc1OC (centres undefined),>57,i
COc1ccc(CNC(=O)C2CCCN2S(=O)(=O)c2ccc(C)cc2)cc1 (centres undefined),.,i
Cc1ccc(N2CC(C(=O)NCc3cccnc3)CC2=O)cc1 (centres undefined),>57,i
CC1CN(C(=O)c2cc3ccccc3oc2=O)CC(C)O1 (centres undefined),.,i
N#Cc1c(N)nc(SCc2ccccc2)c(C#N)c1-c1ccco1,>57,i
O=C(COc1ccccc1)Nn1cnc2ccccc21,>57,i

Gathered by group, the entries above with a furan ring, fused or not.
mol,PK Bst,YjeE inh
COc1ccc(N2CCN(C(c3ccccc3OC)c3nnnn3Cc3ccco3)CC2)cc1 (centres undefined),>57,i
CCOC(=O)C1C(=O)C=C(c2cccc(NS(C)(=O)=O)c2)CC1c1ccco1 (centres undefined),>57,i
COc1ccc(Oc2ncnc3c2oc2ccc(Br)cc23)cc1,.,i
N#Cc1c(N)nc(SCc2ccccc2)c(C#N)c1-c1ccco1,>57,i

Further structures follow.
mol,PK Bst,YjeE inh
COCCCNC(=O)CCc1nc(-c2ccccc2)no1,>57,i
Cn1c(=O)c2c(nc(CN3CCN(Cc4ccccc4)CC3)n2CCN2CCOCC2)n(C)c1=O,>57,i
CCC1Oc2ccccc2N(CC(=O)NCCCN2CCCCC2C)C1=O (centres undefined),>57,i
O=C(O)CCCC(=O)Nc1nc(-c2ccccc2)cs1,>57,i
CCOC(=O)C1=C(C)NC2=C(C(=O)CC(C)(C)C2)C1c1cccc(C)n1 (centres undefined),>57,i
Cc1cc(NC(=O)CSc2cn(CCNC(=O)c3ccc(F)cc3)c3ccccc23)no1,>11,i
OC(C#Cc1ccccn1)c1cccs1 (centres undefined),>57,i
CC1CCCN(C(=O)c2cc3c(-c4ccc(Cl)cc4)nn(C)c3s2)C1 (centres undefined),.,i
O=C(OCC(=O)N1CCN(C(=O)c2ccco2)CC1)c1sc2ccccc2c1Cl,>57,i
COc1ccc(NC(=O)C(CCS(C)(=O)=O)NC(C)=O)cc1 (centres undefined),>57,i
O=c1nc(-c2ccccc2)cn[nH]1,>57,i
O=C(c1ccc(Cl)cc1)C1C2C(=O)N(c3ccccc3)C(=O)C2C2CCCN21 (centres undefined),>57,i
O=C(O)CCSc1nnc(-c2ccc3c(c2)OCO3)o1,>11,i
CCN=C1SC(CC(=O)Nc2ccccc2)C(=O)N1CC (centres undefined),>57,i
COc1ncc2nc(-c3cc(F)cc(F)c3)c(=O)n(CCc3ccccc3)c2n1,.,i
O=C(O)C1C2C=CC3(CN(C4CCCC4)C(=O)C13)O2 (centres undefined),.,i
CCn1ncc(Br)c1C(=O)Nc1nccs1,>57,i
O=C(O)c1cccc(Cn2cc(Br)cn2)c1,>57,i
Cc1ccc(NC2=Nc3ccccc3CS2)cc1,4.1*,i
O=C1c2ccccc2C(=O)N1CCCOCc1c[nH]c(=O)[nH]c1=O,>57,i
CN1C(=O)NC(NC(=O)c2cccs2)(C(F)(F)F)C1=O (centres undefined),>57,i
O=C1OCCC1Sc1nc2ccccc2n1Cc1ccccc1 (centres undefined),>57,i
O=C(Nc1ccc2c(c1)OCCO2)C1CCN(S(=O)(=O)Cc2ccccc2)CC1,>57,i
CCC1CCCCN1S(=O)(=O)c1ccc(NC(=O)CSc2ncccc2C(=O)O)cc1 (centres undefined),>57,i
CCOC(=O)C1CCN(C(=O)c2cn(C)c(=O)c3cc(OC)c(OC)cc23)CC1,>57,i
COc1ccc(-c2nc(CN3CCC(C(=O)NC4CCCc5ccccc54)CC3)c(C)o2)cc1OC (centres undefined),>57,i
COc1ccc(S(=O)(=O)Nc2cccc(SC)c2)cc1OC,>57,i
CCN(CC)C(=O)C1CC(=O)N(c2ccc(F)c(Cl)c2)C1 (centres undefined),.,i
CCOc1ccccc1NC(=O)CN1C(=O)COc2ccc(Cl)cc21,.,i
O=C(Nc1ccc2c(c1)OCO2)c1cnn2cccnc12,i,i
CS(=O)(=O)Nc1ccc(C(=O)NCCc2ccccc2)cc1,>57,i
COCCn1c(=O)c(-c2cccs2)nc2cnc(N3CCN(C)CC3)nc21,.,i
CCn1nc(-c2ccccc2)c2nc3ccccc3nc21,.,i
CCOC(=O)N1CCC(N2Cc3cccc(C(=O)NCc4ccccn4)c3C2=O)CC1,.,i
CCN(CC(=O)NCc1ccc(F)cc1)C(=O)C1CCN(C(=O)Nc2ccccc2)CC1,>57,i
CN(C)c1ncc2nc(-c3ccc(Cl)cc3)c(=O)n(CCC#N)c2n1,.,i
COC(=O)C1=CN(C)C=C(C(=O)OC)C1c1ccsc1,.,i
COC(=O)C1C(O)=C(C=NCC(C)N=CC2=C(O)C(C(=O)OC)C(C)(C)CC2=O)C(=O)CC1(C)C (centres undefined),.,i
COc1ccc(-n2nnnc2-c2cccnc2)cc1,>57,i
O=C(Nc1nc(-c2ccc(S(=O)(=O)N3CCCC3)cc2)cs1)c1cccs1,>57,i
O=S(=O)(c1ccccc1)N1CCC2(CCN(Cc3nccs3)CC2)CC1,.,i
COC(=O)C1CCN(C(=O)COC(=O)CC(NC(N)=O)c2ccc(Cl)cc2)CC1 (centres undefined),>57,i
COCCn1c(C)cc(C(=O)COC(=O)C23CC4CC(CC(O)(C4)C2)C3)c1C,i,i
COc1ccc(CCC(C(O)C(F)(F)F)S(=O)c2ccccc2)cc1 (centres undefined),>57,i
Cn1c(=O)n(Cc2ccccc2F)c(=O)c2c1nc1n2CCCN1CCc1ccccc1,>57,i
O=C1NC(=O)c2cc(NC(=O)C3CCCCC3)ccc21,>57,i
COc1ccccc1-c1nnc(SCC(=O)Nc2cc(C)on2)o1,>57,i
Cc1ccccc1N(CC(=O)NCc1ccc2c(c1)OCO2)C(=O)CCC(=O)Nc1ccccn1,.,i
COc1ccc(N(CC(=O)NCc2cccnc2)S(=O)(=O)c2c(C)nn(C)c2C)cc1,.,i
CCOC(=O)N1CCC(N2C(=O)c3ccccc3C2Nc2ccccc2C)CC1 (centres undefined),.,i
CN(C(=O)CSc1nc2ccccc2n1CCc1ccccc1)C1CCS(=O)(=O)C1 (centres undefined),.,i
Cc1nnc(NC(=O)NCN2C(=O)C3C4C=CC(C4)C3C2=O)s1 (centres undefined),>57,i
COc1ccc(C(=O)N2CCC3(CCN(C(=O)Nc4ccccc4)CC3)CC2)cc1,.,i
Cc1ccc(-n2c(CNc3ccc(F)cc3)nnc2SCC(=O)NCc2ccco2)cc1,>57,i
OCCN1CCN(c2nc(N3CCCCC3)nc(N3CCCCC3)n2)CC1,.,i
CCCn1nnc(NC(=O)COc2ccc(Cl)cc2)n1,>57,i
Cc1ccc2c(c1)N(Cc1ccncc1)C(=O)C(C)O2 (centres undefined),>57,i
COCCn1c(SC(C)C(=O)Nc2ccc3c(c2)OCCO3)nc2ccccc2c1=O (centres undefined),>57,i
CCn1c2ccccc2c2cc(NC(=O)N3CCOCC3)ccc21,.,i
COc1ccc(C(=O)NCCn2ccc3ccccc32)cc1OC,.,i

(cont.)
mol,PK Bst,YjeE inh
Cn1c(=O)c(CCc2ccccc2)nc2cnc(N3CCOCC3)nc21,.,i
CC(C)n1c(=O)[nH]c2ccccc21,>57,i
O=C(NCc1ccco1)C1CCCN(S(=O)(=O)c2cccc3cccnc23)C1 (centres undefined),.,i
C=CCn1c(SCc2ccc3nonc3c2)nnc1-c1cccs1,?,i
CCOc1ccc(N2C(=O)CC(N3CCN(c4ccccc4F)CC3)C2=O)cc1 (centres undefined),.,i
CC(C)(C)c1nn(-c2ccccc2)c2[nH]c(=O)c(CNCc3ccco3)cc12,>57,i
Cc1ccccc1N(CC(=O)Nc1ccc(F)cc1)S(C)(=O)=O,>57,i
CCOC(=O)NCC(C#CCN(CC)CC)N(CC)CC (centres undefined),>57,i
O=C(Nc1nnc(CC(=O)N2CCCC2)s1)c1cnccn1,>57,i
CN(Cc1ccccc1)c1nc2c(c(=O)[nH]c(=O)n2C)n1Cc1ccccc1Cl,>57,i
COc1cccc(C2C(C(=O)c3cc4cccc(OC)c4o3)=C(O)C(=O)N2c2cc(C)on2)c1OC (centres undefined),>11,i
O=C(NC1CCCC1)c1c[nH]c2ccc(F)cc2c1=O,>11,i
Cc1cccc(N(C)C(=O)c2coc(=O)c3ccccc23)c1,>57,i
CC(C)OCCCNS(=O)(=O)c1ccc2c(c1)OCCO2,>57,i
Cc1cccc(N)c1SC1CCCCC1O (centres undefined),>26,.
COCCC(=O)N(Cc1ccc2c(c1)OCO2)C(C(=O)NC1CCCCC1)c1ccncc1 (centres undefined),>57,i
CCOC(=O)c1sc(NC(=O)CSc2nc3c(cc2C#N)CCCCCC3)c(C#N)c1C,>57,i
O=c1cc(NCc2ccccc2)nc2n1CCCS2,>26,.
CC(NC(=O)COc1cc(=O)n(C)c2ccccc12)c1ccc2c(c1)OCCO2 (centres undefined),>57,i
CNC(=O)c1ccc(N(Cc2ccccc2C)S(C)(=O)=O)cc1,>57,i
CCN1CCN(Cc2nc(N)nc(Nc3ccc(C)c(C)c3)n2)CC1,>57,i
O=C(C1CCC(CNS(=O)(=O)c2cccs2)CC1)N1CCCCC1 (centres undefined),>57,i
O=C(CN1C(=O)COc2ccccc21)NCCCN1CCN(Cc2ccccc2)CC1,>57,i
O=C(NC1CCCC1)c1ccc(COCC(F)(F)F)o1,>57,i
COc1ccc(-c2nc(N)c3ncn([C@H]4O[C@@H](CO)[C@@H](O)[C@@H]4O)c3n2)cc1,.,i
Cc1ncn(C23CC4CC(CC(O)(C4)C2)C3)n1,>57,i

Record cards, as listed above. Screens in order: PK Bst, YjeE inh
Shown for `Cc1cccc(N)c1SC1CCCCC1O` (centres undefined) → >26, .
Shown for `COc1cccc(C2C(C(=O)c3cc4cccc(OC)c4o3)=C(O)C(=O)N2c2cc(C)on2)c1OC` (centres undefined) → >11, i

Random excerpt: 2 entries already listed, in no set order.
mol,PK Bst,YjeE inh
COCCC(=O)N(Cc1ccc2c(c1)OCO2)C(C(=O)NC1CCCCC1)c1ccncc1 (centres undefined),>57,i
Cc1nnc(NC(=O)NCN2C(=O)C3C4C=CC(C4)C3C2=O)s1 (centres undefined),>57,i

Source: PubChem
